Source: PubChem BioAssay (National Center for Advancing Translational Sciences (NCATS))
Bst PK mod: pyruvate kinase (B. stearothermophilus) modulation; partly purified Bacillus stearothermophilus pyruvate kinase, luminescence ATP production; ribose 5-phosphate activator present at AC10; AID 361; 51,000 compounds, 1.2% hits; Potency, µM; in the data active means potency below about 11 µM; inconclusive means mostly about 12 µM to 25 µM; inactive means weaker than that;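 the screen sought inhibitors and activators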;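 note: potency is the fitted concentration of half-maximal effect; scaled between full activation by ribose 5 phosphate and full inhibition by luteolin; about four in five hits inhibit and the cells do not say which; series up to 57 µM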
TsaE inh: displaces an ADP probe from E. coli YjeE (TsaE); P0AF67; purified YjeE, fluorescence polarisation of a bound ADP probe; Potency, µM; 71,000 compounds, 0.05% hits; AID 605; active = well fitted falling curve; inconclusive = weaker or top-dose-only fall, or a rising curve; inactive = flat or poorly fitted curve;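 note: top concentration of the series not given in the record; excess ADP was the control for the full effect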
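Fluorescence polarization of a BODIPY Texas Red–ADP probe (2 uM) bound to purified YjeE (10 uM) was read after 15 min room-temperature incubation with compounds. Loss of polarization marks inhibitors; ADP serves as titrated control.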
Numbers without * were called inactive; i = inactive; ? = inconclusive; · = no result given. Some of the compounds tested; count on the stated rates, not on these rows.

SMILES | Bst PK mod | TsaE inh
CC(C)n1c(SCCCc2ccccc2)nc2c1c(=O)[nH]c(=O)n2C | · | i
COc1ccc(-c2nnc(SCc3nnc(-c4ccc(Cl)cc4)o3)n2-c2ccccc2)cc1 | · | i
Cc1nnc(SCC(=O)N2CCC(c3noc4ccc(F)cc34)CC2)s1 | >57 | i
COC(=O)c1ccccc1NC(=O)C(C)NS(=O)(=O)c1ccc(OC)cc1 (stereo not drawn) | >57 | i
Cc1ccc(S(=O)(=O)NCCCOC(=O)Nc2ccncc2)cc1 | >57 | i
CC1(C)Cc2c(C#N)c(NCCCO)nc(-c3ccccc3)c2CO1 | · | i
COc1ccc(-n2nc(C(=O)NCC(=O)NCc3ccco3)c3ccccc3c2=O)cc1 | >57 | i
CCOC(=O)c1c(N)sc(C(N)=O)c1C | · | i
CCn1c(CNc2ccc(OC)cc2)nnc1SCC(=O)N1CCCc2ccccc21 | >57 | i
O=C(COc1ccccc1Cl)NCCCN1CCOCC1 | >57 | i
CC1Cc2ccccc2N1c1ncnc2c1nnn2Cc1ccccc1 (stereo not drawn) | >57 | i
O=C(c1cccc(F)c1)N1CCC2(CCN(Cc3nccs3)CC2)CC1 | · | i
Cc1occc1C(=O)NC1CCCCCC1 | · | i
Cc1noc(C)c1COC(=O)C1CC(O)CN1S(=O)(=O)c1ccc(Cl)cc1 (stereo not drawn) | >57 | i
O=C(Nc1nc(-c2ccc(S(=O)(=O)N3CCCCCC3)cc2)cs1)c1cccs1 | >57 | i
CCCCOC(=O)CCn1c(=S)oc2ccccc21 | >57 | i
COc1ccccc1N(CCC#N)C(=O)CSc1ccc2c(c1)OCCO2 | >57 | i
CCOC(=O)c1ccc2nc(C)c3c(c2c1)OC(C)C3 (stereo not drawn) | · | i
CCCCCn1c(=NC(C)=O)c(C#N)cc2c(=O)n3cccc(C)c3nc21 | >57 | i
Cc1c(Cl)cccc1Nc1nc(N)nc(CSc2ncccn2)n1 | >57 | i
CCOC(=O)c1ccccc1N/C=C1\CCCC1=O | >11.4 | i
CN(C)c1nc(N)nc(Cn2ccnc2)n1 | >57 | i
COC(=O)C1=C(Cn2cnc3ccccc32)NC(=O)NC1c1cc(C)ccc1C (stereo not drawn) | >57 | i
CCc1ccc2c(-c3cccc(Cl)c3)nc(=O)n(CC)c2n1 | · | i
O=C(CC(=O)c1ccncc1)c1ccccc1 | · | i
O=C(NC1CCCCC1)c1ccc(S(=O)(=O)N2CCCCC2)cc1 | >57 | i
CCOC(=O)CSc1nnc(CNC(=O)c2ccccc2OC)n1-c1ccc(OC)cc1 | >57 | i
Cn1nccc1C(=O)Nc1ccccc1C(=O)O | >25.6 | ·
Cc1cccc(OCCCc2c(C)n[nH]c2C)c1 | · | i
O=C(Cn1nnc(-c2ccccc2F)n1)NCCc1ccccc1 | · | i

The last 4 records of the section before are carried over, then new ones follow:
SMILES | Bst PK mod | TsaE inh
CCOC(=O)CSc1nnc(CNC(=O)c2ccccc2OC)n1-c1ccc(OC)cc1 | >57 | i
Cn1nccc1C(=O)Nc1ccccc1C(=O)O | >25.6 | ·
Cc1cccc(OCCCc2c(C)n[nH]c2C)c1 | · | i
O=C(Cn1nnc(-c2ccccc2F)n1)NCCc1ccccc1 | · | i
Cc1onc(-c2c(Cl)cccc2Cl)c1C(=O)NCC1CCCO1 (stereo not drawn) | · | i
Cn1cccc1C(=O)N1CCC2(CCN(C(=O)Nc3cccc(F)c3)CC2)CC1 | · | i
O=C(O)c1ccc(Cc2ccccc2C(=O)O)cc1 | · | i
Cn1c(SCc2nc3ccccc3[nH]2)nnc1-c1cccnc1 | >57 | i
C/C(Sc1nnc(Cc2ccccc2)o1)=C(/O)c1ccccc1 | >57 | i
OCc1nc(CO)n(Cc2ccccc2)n1 | >57 | i
Cc1cc(=O)oc(C)c1C(=O)NCC(C)NC(=O)c1c(C)cc(=O)oc1C (stereo not drawn) | >25.6 | ·
CC1(c2ccccc2)NC(=O)N(CC(=O)Nc2cccc(C#N)c2)C1=O (stereo not drawn) | >57 | i
CCC(=O)N1CCc2cc(Br)cc(S(=O)(=O)CC(=O)OC)c21 | >57 | i
Brc1ccccc1C1=Nn2c(nnc2-c2ccccc2)SC1 | ? | i
CCN(Cc1ccccc1)C(=O)C1CCN(Cc2ccc(OC)c(OC)c2OC)CC1 | >57 | i
O=C(CN1C(=O)c2cccc3cccc1c23)Nc1ccc2c(c1)OCO2 | 1.9* | i
CCOc1ccc(OCC)c(NC(=O)C2CCN(c3ncccn3)CC2)c1 | >57 | i
CC(=O)NCCn1c(C)cc2ccccc21 | · | i
CC(=O)Nc1nc(C)c(S(N)(=O)=O)s1 | >57 | i
CCOC(=O)N1CCN(c2cc(=O)n(C3CCCCC3)c(=O)[nH]2)CC1 | >57 | i
Cc1cc(C)n2nc(S(=O)(=O)N(CC(C)C)CC(C)C)nc2n1 | · | i
CCOC(=O)C1CCN(c2c(NCc3ccc(C(=O)O)cc3)c(=O)c2=O)CC1 | · | i
CC1(C)Cc2nc3oc4c(NCc5ccccc5)ncnc4c3cc2CO1 | >57 | i
N#Cc1cn(-c2ccccc2)nc1-c1cc2ccccc2oc1=O | >57 | i
CC1CCC(NC(=O)CN2CCC(n3nnc4cc(F)ccc43)CC2)CC1 (stereo not drawn) | >57 | i
O=C(NCC1CCC(C(=O)O)CC1)c1cccnc1 (stereo not drawn) | >57 | i
CC(C)C[C@H](NC(=O)[C@@H](O)[C@H](N)Cc1ccccc1)C(=O)O | · | i
CCOC(=O)/C=c1\s/c(=C(\C#N)C(=O)OCC)n(-c2ccccc2)c1=O | >25.6 | ·
CCOC(=O)c1cccc(S(=O)(=O)N(CCO)Cc2cc3cc(OC)c(OC)cc3[nH]c2=O)c1 | >57 | i
Cc1ccnc(NC(=O)Nc2ccc(F)cc2)c1 | · | i
CN=C1CC(C)(C)CC(=O)/C1=C(/O)CCC(=O)NC | >57 | i
O=C(Nc1ccc(N2CCN(Cc3ccccc3)CC2)cc1)c1cccnc1 | >57 | i
O=C1NCCCCC1NC1CC(=O)N(c2ccccc2)C1=O (stereo not drawn) | >57 | i
Cc1ccccc1OCc1nnc(SCC(=O)Nc2ccc3c(c2)oc2ccccc23)n1C | >57 | i
CC(=O)N1C2(C=CC1(C)C(=O)NCc1ccc(C)o1)CCCCC2 (stereo not drawn) | · | i
CN1CCN(c2nc(C(N)=O)cc(-c3ccccc3)n2)CC1 | 10.6* | ·
CC(C)[C@@H](CC(=O)N[C@@H]1CCNC[C@H]1C(=O)N[C@H](CC(=O)N[C@@H](CCC(=O)O)CC(=O)O)Cc1ccccc1)NC(=O)C[C@H](Cc1c[nH]c2ccccc12)NC(=O)[C@@H]1CNCC[C@H]1N | · | i
O=c1nc(-c2ccccc2)cc(-c2ccccc2)[nH]1 | · | i
Cc1nc(SCC(=O)NCc2ccco2)c2c3c(sc2n1)CCCC3 | >57 | i
Cc1ccc(CCN2CC(C(=O)NC3CCCC3)CC2=O)cc1 (stereo not drawn) | >57 | i
CC(CCc1ccco1)NC(=O)Cn1nc(Cc2ccncc2)c2ccccc2c1=O (stereo not drawn) | · | i
COc1ccc(C2N(c3cc(Cl)ccc3OC)C(=O)C3CCCN32)cc1 (stereo not drawn) | · | i
Cc1nc2cc(O)ccc2n1C | >57 | i
Cc1ccc(CCNc2ccccc2)c[n+]1[O-] | >57 | i
c1coc(CNc2ncnc3sc4c(c23)CCCCC4)c1 | · | i
O=C1Nc2ccccc2C12OCCCCO2 | >57 | i
Cc1ccc2c(c1)nnn2C1CCN(CC(=O)N2c3ccccc3CC2C)CC1 (stereo not drawn) | >57 | i
CCCNS(=O)(=O)c1ccc(CCC(=O)NCc2cccnc2)cc1 | >57 | i
CCOC(=O)N1CCN(C(=O)C(CC)n2nc(C)c3sc4ccccc4c3c2=O)CC1 (stereo not drawn) | >57 | i
O=C(O)CCc1ccc(-c2ccc(Br)cc2)n1CC(=O)O | · | i
COC(=O)c1cc(-c2c[nH]c3ccccc23)n[nH]1 | · | i
CC(=O)O[C@@H]1[C@H]([N+]2(C)CCCCC2)C[C@@H]2[C@@H]3CC[C@@H]4C[C@@H](OC(C)=O)[C@H]([N+]5(C)CCCCC5)C[C@@]4(C)[C@H]3CC[C@]21C | · | i
CC1CCN(S(=O)(=O)c2ccc3[nH]cc(C(=O)NCCN4CCOCC4)c(=O)c3c2)CC1 | >57 | i
CCn1cnc2c1c(=O)n(Cc1csc(-c3ccccc3)n1)c(=O)n2Cc1ccccc1 | >57 | i
CCOC(=O)CCNC(=O)CNC(=O)OCc1ccccc1 | >57 | i
CCOC(=O)c1c(NC(=O)CSc2nc3cccnc3n2C)sc(C(C)=O)c1C | >57 | i
COc1ccc(-c2noc(-c3ccc(Cl)cc3)n2)cc1 | 5.41* | i
CC(=O)c1ccc(OCC(O)Cn2nnc3ccccc32)cc1 (stereo not drawn) | · | i
Cc1ccc(C(=O)NC=C(Cl)Cl)cc1 | >11.4 | i
CCOc1cc(S(=O)(=O)NCc2ccc3c(c2)OCO3)ccc1F | >57 | i
COc1ccc(S(=O)(=O)Nc2ccc(Cl)cn2)c(C)c1C | >57 | i
CCOC(=O)C1CCN(c2nc(C)nc3c2oc2ccccc23)CC1 | >57 | i
Cc1ccc(C)c(N2CCN(C(=O)c3ccc(NS(=O)(=O)c4c(C)noc4C)cc3)CC2)c1 | >57 | i
O=C1c2cccc(O)c2C(=O)c2c(O[C@@H]3O[C@H](CO)[C@@H](O)[C@H](O)[C@@H]3O)cccc21 | · | i

(cont.)
SMILES | Bst PK mod | TsaE inh
CC(C)CC1(C(=O)NCCc2c[nH]c3ccccc23)C=CCN1C(=O)c1ccccc1 (stereo not drawn) | · | i
Cc1cccc(C)c1NC(=O)CCCSc1nnc(-c2ccco2)n1-c1ccccc1 | >57 | i
CCOC(=O)Cn1nnnc1C(CC)N(Cc1cccs1)Cc1cc2cc(C)ccc2[nH]c1=O (stereo not drawn) | >57 | i
COC(=O)CCCCC(=O)OC | · | i
CCC(=O)N(CCO)Cc1cc2ccc(C)c(C)c2[nH]c1=O | >57 | i
N#Cc1cnc(SCC(=O)Nc2ccccc2C(F)(F)F)nc1N | >57 | i
NC(=O)c1ccsc1NC(=O)CN1C(=O)C2CC=CCC2C1=O (stereo not drawn) | >57 | i
O=C(NC1CCCCC1)NC1CCN(CC(=O)N2CCOCC2)CC1 | >57 | i
C/C(N)=C(/C#N)C(=O)COC(=O)CCSc1ccccc1 | >57 | i
Cc1ccc(-c2nnc(SCC#N)n2N)cc1 | >57 | i
CCOC(=O)c1cc(NC(=O)N2CCOCC2)c(C)nc1C | >57 | i
c1coc(CNc2nc3nonc3nc2NCc2ccco2)c1 | >57 | i
CSc1nsc(SCC(=O)Nc2cccc(C(C)=O)c2)n1 | >57 | i
COc1ccccc1NC(=O)C1=C(C)Nc2nnnn2C1c1cccc(Br)c1 (stereo not drawn) | >57 | i
CCCOC(=O)c1ccc(-c2c(C)noc2-c2ccc(OC)cc2O)o1 | >57 | i

Reformatted: results already given.
SMILES	Bst PK mod	TsaE inh
CSc1nsc(SCC(=O)Nc2cccc(C(C)=O)c2)n1	>57	i
COc1ccccc1NC(=O)C1=C(C)Nc2nnnn2C1c1cccc(Br)c1 (stereo not drawn)	>57	i

Other results.
SMILES | Bst PK mod | TsaE inh
Cc1ccc(NC(=O)CN2C(=O)C(C)Oc3ccccc32)nc1 (stereo not drawn) | >57 | i
CCn1c(N)nc2c1c(=O)n(C)c(=O)n2C | · | i
CC1(C)CC(=O)C=C(NCCN2CCN(C(=O)Nc3ccc(Cl)cc3)CC2)C1 | · | i
CCOc1ccc(S(=O)(=O)N2Cc3ccccc3CC2C(=O)NCCCn2ccnc2)cc1 (stereo not drawn) | >57 | i
COc1ccc2c(c1)c(CC(=O)O)c(C)n2Cc1ccc(Cl)cc1 | · | i
CCCCOCCOCCSC#N | · | i
COc1ccc(OC)c(C(=O)CSc2nc3cccnc3n2C)c1 | >57 | i
Nc1nc(-c2cccnc2)nn1C(=O)CCc1ccccc1 | >57 | i
COc1ccc(CCN2C(=O)CCC2(C)C(=O)NCc2cccnc2)cc1OC (stereo not drawn) | >57 | i
CN(C)CCCN(CCCNC(=O)/C=N/O)Cc1ccccc1 | >11.4 | ·
CC(C)(C)n1nnnc1C(c1cccnc1)N1CCN(C(=O)c2ccco2)CC1 (stereo not drawn) | >57 | i
COC(=O)/C=C(\C)NC(=O)c1ccccc1Cl | · | i
CCOc1ccc2nc(NC(=O)C3CCCN(S(=O)(=O)c4c(C)noc4C)C3)sc2c1 (stereo not drawn) | · | i
O=C(Cn1nnc(-c2ccccc2F)n1)Nc1cccc2ncccc12 | >57 | i
CC(C)(C)C(=O)NC1(C(F)(F)F)C(=O)Nc2c1c(=O)[nH]c(=O)n2Cc1ccco1 (stereo not drawn) | >57 | i

The final 4 compounds of the part above come first, to join the parts.
SMILES | Bst PK mod | TsaE inh
COC(=O)/C=C(\C)NC(=O)c1ccccc1Cl | · | i
CCOc1ccc2nc(NC(=O)C3CCCN(S(=O)(=O)c4c(C)noc4C)C3)sc2c1 (stereo not drawn) | · | i
O=C(Cn1nnc(-c2ccccc2F)n1)Nc1cccc2ncccc12 | >57 | i
CC(C)(C)C(=O)NC1(C(F)(F)F)C(=O)Nc2c1c(=O)[nH]c(=O)n2Cc1ccco1 (stereo not drawn) | >57 | i
CC1(C)Cc2cccc(OCC(O)CNCc3ccccn3)c2O1 (stereo not drawn) | >57 | i
COc1cc(C2Nc3ccccc3C(=O)N2c2ccccc2OC)ccc1O (stereo not drawn) | >57 | i
COc1cc(Cn2c(N)c(C#N)c3nc4ccccc4nc32)cc(OC)c1 | >57 | i
CN1CCc2c(C#N)c(N3CCCCC3)nc(N3CCOCC3)c2C1 | >25.6 | ·
